Screening results deposited in PubChem by National Center for Advancing Translational Sciences (NCATS).
gsp antagonist – antagonizes gsp, the McCune-Albright syndrome mutation; gsp-mutant cells, cAMP HTRF, 30 min; control for the full effect not named in the record; AID 624288; Potency, µM (top dose mostly 76.9 µM), for the others: at the highest dose activity change, negative = inhibition, usual class: inhibitors; 0.4% of 340,000 active; active = falling curve of any shape with a large fitted effect; inconclusive = falling curve, mostly with a smaller effect; inactive = flat or rising curve; cell line not stated here;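 note: intracellular cAMP measured with PDE inhibitor Ro 20-1724 present during compound exposure; potency is the fitted concentration of half-maximal effect; % is set by controls: 0 for no effect and ±100 for the full control effect; nearly all actives have a fitted effect of over 65% in size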
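Cells in G418 medium, seeded 16-24 h, 37C; buffer exchange to DPBS + 1 mM CaCl2, 0.5 mM MgCl2, 0.05% BSA; cpds in DMSO + […] (300 uM stock), 30 min 37C; HTRF cAMP detection.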
PINK1 expr mod – PINK1 expression modulation; PINK1 immunofluorescence, high-content cytometry, 24 h; Potency, µM (titrated, usually from 76.6 µM), inactives show at the highest dose activation (PINK1 increase), actives largely listed as activators; 0.2% of 410,000 active; AID 624263; active = well fitted activation curve with a large enough effect; inconclusive = small, poorly fitted or top-dose-only effect; inactive = flat fitted curve, though single readings scatter; cell line not stated here;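 note: potency is the fitted concentration of half-maximal effect; % of control where 0% means no effect; nearly all actives have a fitted effect of over 65% in size; a mitochondrial uncoupler was the plate control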
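Fluorescence from anti-PINK1 antibody, together with nuclear and cell stains, was scanned on a laser-scanning cytometer. Before staining, stable-line cells were incubated 24 hours with compounds at 5 concentrations; primary antibody 12 h at 10 degrees C.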
Sfp inh – inhibitors of Bacillus subtilis Sfp phosphopantetheinyl transferase; Potency, µM, for the others: max response, negative = inhibition, most hits filed as inhibitors; 3.5% of 310,000 active; Biochemical Sfp PPTase activity, qHTS; Q9F4F7; active = well fitted inhibition curve with a large enough effect; inconclusive = small, poorly fitted or top-dose-only effect, or another doubt; inactive = no such curve, though single readings can be large or run the other way;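 note: the enzyme is Sfp with the accession as filed and its product quenches rhodamine fluorescence; potency is the fitted concentration of half-maximal effect; 0% = enzyme reaction without inhibitor and -100% = no enzyme wells; top concentration of the series not given in the record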
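Fluorescence-quenching assay: 15 nM Sfp-PPTase preincubated 15 min at room temperature with compound, then 5 uM rhodamine-CoA and 12.5 uM BHQ-2-labelled YbbR peptide added. Fluorescence (ex 525/em 598 nm) read at start and after 30 min; difference gives rate.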
Menin-MLL FL inh – menin-MLL binding inhibition, fluorescein peptide; Fluorescence polarization, fluorescein-MLL peptide displacement from menin; FP activity change, % at 61.4 µM; 290,000 tested, under 10 active; AID 1766; inconclusive = falling polarisation curve, or a change in total fluorescence; inactive = total fluorescence flat and polarisation flat or rising; no compound was filed as active; the % refers to the polarisation; negative = inhibition;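 note: % of control where 0% means no effect; inhibitors lower the polarisation; unlabelled MLL peptide was the positive control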
ClpP mod – qHTS Assay for Activators of ClpP; AID 651965, 2013; purified B. subtilis ClpP, FRET peptide cleavage, 20 min; Potency, µM (top dose mostly 57.5 µM), inactives show at the highest dose activity change, negative = active; 1.9% of 340,000 active; active = well fitted falling curve with a large enough effect; inconclusive = small, poorly fitted or top-dose-only effect; inactive = no such curve, though single readings can be large or run the other way; note: potency is the fitted concentration of half-maximal effect; the source files actives as falling curves though it sought activators and does not explain the sign; nearly all actives have a fitted effect of over 65% in size; many hits overshoot -100%
Target sequence (P80244 whole entry, looked up): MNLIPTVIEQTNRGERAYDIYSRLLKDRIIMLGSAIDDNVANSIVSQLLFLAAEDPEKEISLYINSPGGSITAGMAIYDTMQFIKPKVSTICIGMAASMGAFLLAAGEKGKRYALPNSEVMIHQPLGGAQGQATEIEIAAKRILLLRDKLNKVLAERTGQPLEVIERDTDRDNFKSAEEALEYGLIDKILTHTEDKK
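ClpP 10 microg/mL final, pH 8 Tris/KCl buffer with BSA, glycerol, Tween-20; compound pinned in; FRET-FV substrate; RT 20 min; Ex320/Em430; ΔFRET vs ADEP 5.8 microM, DMSO, no enzyme.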
gsp ag – activates gsp, the McCune-Albright syndrome mutation. AID 624287. Potency, µM (series often up to 76.9 µM), for inactives: at the top dose activation (cAMP increase), actives largely listed as activators. gsp mutant cells, cAMP HTRF, 30 min; control for the full effect not named in the record. 0.13% of 340,000 active; active = well fitted activation curve with a large enough effect; inconclusive = small, poorly fitted or top-dose-only effect, or another doubt; inactive = no such curve, though single readings can be large or run the other way; cell line not stated here;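 note: phosphodiesterase inhibitor Ro 20-1724 added with compounds to block cAMP breakdown; potency is the fitted concentration of half-maximal effect; nearly all actives have a fitted effect of over 60% in size; about a fifth of the inactives were tested at one dose only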
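Cells in DMEM/10% FBS with G418 were pretreated with compounds in DMSO plus […] (300 uM stock) for 30 min at 37C. cAMP was measured by HTRF (cAMP-d2 plus anti-cAMP antibody-K) after 30 min at room temperature.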
D2 ag – activates the human D2 dopamine receptor | P14416 | AID 624465 | DiscoveRx PathHunter D2 beta-arrestin, luminescence, 90 min; 100% = 57 uM dopamine signal | activation, % (no concentration beside the values) | 0.084% of 360,000 active; in the data active = activation above about 40%; inconclusive = about 15% to 40%; inactive = below about 15%; note: compound concentration not given in the record; the text of the record calls up to 30% inactive
Target sequence (P14416 whole entry, looked up): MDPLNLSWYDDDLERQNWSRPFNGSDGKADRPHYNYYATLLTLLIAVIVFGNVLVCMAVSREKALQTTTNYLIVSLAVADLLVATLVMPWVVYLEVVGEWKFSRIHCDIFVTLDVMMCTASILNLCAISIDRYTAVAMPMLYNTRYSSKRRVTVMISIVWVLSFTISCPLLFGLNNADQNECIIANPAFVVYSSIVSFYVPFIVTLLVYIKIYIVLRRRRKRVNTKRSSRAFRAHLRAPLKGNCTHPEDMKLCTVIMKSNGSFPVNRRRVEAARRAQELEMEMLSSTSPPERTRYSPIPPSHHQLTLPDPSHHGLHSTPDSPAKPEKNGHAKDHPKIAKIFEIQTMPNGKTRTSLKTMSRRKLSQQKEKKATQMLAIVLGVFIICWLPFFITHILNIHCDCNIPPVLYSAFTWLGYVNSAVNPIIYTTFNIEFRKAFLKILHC
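Agonist mode: compounds alone added to overnight-plated D2 PathHunter cells for 90 min at 37 C, with 57 uM final dopamine (EC100) defining full response. Beta-arrestin recruitment detected by chemiluminescent reagent, read after 1 h at ambient temperature.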
* = called active by the depositor; ? = inconclusive; . = no result given; & = joins results of further samples; [ ] = remark or other dose.

Order of values – gsp antagonist, PINK1 expr mod, D2 ag, ClpP mod, Menin-MLL FL inh, gsp ag, Sfp inh
- O=C(COc1ccccc1)Nc1nnc(-c2ccco2)o1
→ 2.1%, 2.3%, -2.5, -2.4%, 2.8, -16.3%[15.4 µM], -18.2%
- Cc1ccc(O)c(Cn2nnc3ccccc32)c1
→ 0.1%, 1.4%, -6.1, 1.3%, ., ., .
- Cc1c(NC(=O)C(C)OC(=O)COc2cccc3c2OC(C)(C)C3)c(=O)n(-c2ccccc2)n1C (configuration not stated)
→ -0.5%, 1.1%, -4.8, -0.9%, 4.3, -12.9%, 13.3%
- CC(C)(C)C1CCC(=O)N(CCOc2ccccc2)CC1 (configuration not stated)
→ 3.9%, 2.5%, 2.7, 0.5%&0.0%, -2.0, -6.8%, 4.4%
- COc1ccc2c(=O)c3c(=O)n(Cc4ccco4)c(-c4ccccc4)nc3oc2c1
→ -14.1%, -5.4%[38.3 µM], -2.6, -4.3%, 2.8, -29.0%, 31.6µM*
- Cc1onc(-c2ccccc2Cl)c1C(=O)NCC(=O)O
→ 17.9%, -2.2%, -0.2, -0.1%, 0.4, 15.5%, 9.8%
- O=C(COC(=O)/C=C/c1cccs1)Nc1ccc(F)cc1
→ -1.6%, 1.0%, -1.0, 0.9%, ., ?, .
- CCCCCCCN(c1ccccc1)[C@@H]1C[C@H]2CCCC(=O)N3CC[C@@H](C1)[C@@H]23
→ -12.0%, -1.3%, -0.5, -0.9%, ., ., .
- CC(=O)c1cccc(S(=O)(=O)N2CCC(C(=O)N(C)Cc3ccc(Cl)s3)CC2)c1
→ -16.0%, -1.8%, 5.9, -0.7%, ., -61.7%[inhibitor], .
- CCCCC(=O)Nc1cccc(NC(=O)c2ccc(Br)cc2)c1
→ 4.3%, 12.1%[38.3 µM], 4.3, -1.3%, 1.8, -35.9%, 19.2%
- O=C(CSc1nnc(-c2ccccc2F)n1C1CCCCC1)N1CCCC1
→ -12.0%, -2.4%, -0.5, -2.2%, 0.8, ?, 5.0%
- CN(C)/C=C(\C#N)C(N)=C(C#N)C#N
→ -3.8%, -0.7%, 12.9, ., 5.5, 7.6%[15.4 µM], 18.0%
- COc1c(O)cccc1-c1nnn(CCC(=O)OCC(=O)c2ccccc2)n1
→ -11.4%, 0.7%[38.3 µM], -1.3, 1.9%, 2.9, -20.7%, -4.5%
- O=C(COC(=O)/C=C/c1ccccc1F)Nc1nnc(-c2ccccc2)o1
→ -2.4%, -3.9%, -2.1, ., ., 5.4%[15.4 µM], .
- O=C(CCCOc1ccccc1)Nc1cccc(C(=O)O)c1
→ -6.5%, -2.1%, -2.2, -8.2%, 1.7, -44.5%[inhibitor], 0.2%
- COc1ccc2cc(/C(C)=N/NC(=O)c3cc(C)oc3C)ccc2c1
→ ., 7.6%, -3.2, -18.5%, ., -2.1%, .
- NC(Cc1ccc(F)cc1)c1csc(Nc2ccc(C(=O)NCCCO)cn2)n1 (configuration not stated)
→ ., 1.9%, 4.9, ?, ., ., .
- CC(=O)NCCCNS(=O)(=O)c1ccc(C)cc1
→ 8.4%, -1.5%, 1.2, 0.3%, -1.6, -1.9%, 13.9%
- Cc1cc(C(=O)N/N=C/C=C/c2ccc3c(c2)OCO3)n[nH]1
→ -7.0%, -0.7%, -1.8, -18.3%, 3.3, -3.0%, 14.9%
- O=C(COC(=O)/C=C/c1cccs1)Nc1nc(-c2cccc(Br)c2)cs1
→ ?, 5.4%, -3.9, -5.9%, -0.3, ?, 19.4%
- COCCNC(=O)Nc1ccc2c(c1)N(C)C(=O)CS2
→ -1.6%, ., -1.5, -8.8%, 6.6, 4.9%, 12.8%
- CC(=O)C[C@@H](O)CC(=O)[C@H]1OC(=O)CCCCCCc2ccccc21
→ -3.1%, 2.0%, 2.1, -12.8%, ., ., .
- Cc1ccc(S(=O)(=O)N2[C@@H](c3ccc(C#N)cc3)C(C(=O)O)=C[C@H]2C(C)(C)C)cc1
→ -1.1%, -1.2%, -3.7, -6.1%, ., ., .
- C#CCN1Cc2ccccc2Oc2cc(Br)ccc2S1(=O)=O
→ -10.3%, -0.2%, -2.3, 1.2%, ., ., .
- CCOC(=O)N1CCN(S(=O)(=O)c2ccc3c(c2)oc(=O)n3C)CC1
→ 3.4%, 1.6%[38.3 µM], -2.9, 0.8%, 16.4, -29.7%, 15.9%
- CC(C)(C)[C@H]1COC(=O)[C@H](NC(=O)OCC2c3ccccc3-c3ccccc32)C/C=C\C[C@@H](CC(=O)N(CCO)Cc2ccccc2)C(=O)N1
→ -20.8%, -0.2%, -8.6, -5.8%, ., -2.3%, .
- CCc1ccccc1NC(=O)C(C#N)Cc1cccnc1 (configuration not stated)
→ 7.3%, -7.0%[38.3 µM], 0.8, -2.6%, 0.6, 15.1%, 16.8%
- CCOC(=O)NC(Nc1ccc(C)cn1)(C(F)(F)F)C(F)(F)F
→ 3.1%[15.4 µM], 1.3%, -3.3, -21.9%, 2.6, 10.3%, 3.2%
- COc1ccc(C=NNC(=S)Nc2ccc(F)cc2)cc1OC
→ 6.2%, 8.5%, -0.3, ., ., -0.9%, .
- CC1(C)CCCC2=C1CC1C(=O)N(O)C(=O)C1C2 (configuration not stated)
→ 5.2%, 1.1%, 2.8, -2.6%, 8.3, 5.6%, 12.9%
- CC(=O)c1cnn(-c2ccc(Cl)cc2)c1C
→ 0.1%, -2.2%, 3.4, ., 3.9, 12.6%, 22.1%
- COC(=O)c1c(C(=O)OC)c2cc(C(=O)c3ccccc3)ccn2c1Cl
→ -6.9%, 5.8%, -3.3, -3.7%, 10.6, 1.6%, ?
- Cc1cc([N+](=O)[O-])ccc1NC(=O)/C=C/c1cccs1
→ -4.6%, 11.6%, -2.9, 0.1%, -1.7, 39.5%, 0.5%
- Cn1c(CCN2CCN(c3ccccn3)CC2)nc2cc(NC(=O)COc3ccc([N+](=O)[O-])cc3)ccc21
→ -1.2%, -0.7%, 2.4, -1.7%, -0.9, 14.9%, 10.5%
- CCN(CC)S(=O)(=O)c1ccc(C(=O)NCC(=O)NCCCc2ccccc2)cc1
→ -3.2%, 3.2%, -0.3, ., -0.2, 1.0%, 3.8%
- COc1ccccc1N1CCN(C(=O)Cn2c(=O)oc3cc(S(=O)(=O)N4CCCC4)ccc32)CC1
→ -3.4%, 1.5%, -9.7, 0.8%, 4.5, 3.8%, -4.4%
- O=C(COC(=O)c1ccc2ncsc2c1)Nc1ccccc1Br
→ -9.1%, 4.9%, -0.2, -3.1%, ., -9.1%, .
- CNCC(=O)Nc1ccc(OC(F)(F)F)cc1
→ 0.7%, -1.0%, -0.8, ., -3.2, 13.8%[15.4 µM], -0.6%
- Cc1nn(Cc2ccccc2)c(C)c1NC(=O)CCCn1nc([N+](=O)[O-])cc1C
→ 4.6%, 5.2%, -5.1, ., -7.3, 8.4%, 16.9%
- CCc1ccc(-c2cc(C(=O)NN3CCOCC3)c3ccccc3n2)s1
→ -11.6%, 1.0%, -1.5, ., -1.1, -2.9%[15.4 µM], -9.1%
- O=S(=O)(c1cccc(Br)c1)N1CCN(c2ncnc3scc(-c4ccccc4)c23)CC1
→ -16.7%, -1.6%, -3.3, -3.7%, ., -8.5%, .
- COc1ccccc1C(=O)Nc1ccc(C(=O)N2CCCC2)cc1
→ ?, 4.7%[38.3 µM], 2.6, 1.0%, 1.9, 12.2%, 19.5%
- COc1ccc(C(C(=O)NC2CCCC2)N(Cc2cccnc2)C(=O)c2snc(C(N)=O)c2N)cc1OC (configuration not stated)
→ 2.8%, -1.3%, 4.5, ?, ., 23.9%, 11.2%
- Cc1ccc(Nc2cc(-n3nc(C)cc3C)ncn2)c(C)c1
→ -5.5%, 6.1%, -3.7, 1.3%, 3.2, 9.3%, 1.0%
- CC(C)NC(=O)c1cc(-c2ccc(Br)cc2)on1
→ 1.5%, 10µM*, 2.5, -1.4%, 5.9, -3.0%, 1.1%
- O=C(c1ccccc1)c1ccc(C(=O)N2CCN(c3ccccc3Cl)CC2)cc1
→ 7.3%, -1.8%, -1.0, 0.4%, ., -38.8%[inhibitor], .
- O=C(Nc1ccc(C(F)(F)F)cc1Cl)c1ccc(Cn2cc(Br)cn2)o1
→ -4.1%, -5.0%[38.3 µM], 2.3, -5.6%, 2.2, 10.7%, ?
- COc1ccc(OC)c(NC(=O)c2cccc(N3C(=O)C4C5C=CC(C6CC56)C4C3=O)c2)c1 (configuration not stated)
→ 28.2µM*, 2.6%, 7.0, 2.0%, ., -47.7%[inhibitor], -0.5%
- CCN(CC)C(=O)c1csc(Nc2cccc3ccccc23)n1
→ -3.8%, 0.7%, 2.4, ., -0.9, 7.3%, -10.3%
- CCN(CC)C(=O)C1=C(C)N(CCCOC)C(=O)C(CC(=O)NCCCN(C)C)C1 (configuration not stated)
→ ., 0.4%, -8.7, -0.5%, ., -33.4%, .

(continued)
Order of values – gsp antagonist, PINK1 expr mod, D2 ag, ClpP mod, Menin-MLL FL inh, gsp ag, Sfp inh
- COc1ccccc1CNC(=O)c1cc(C)nc2ccccc12
→ -4.5%, 0.4%, -4.5, ., 1.0, 12.5%[15.4 µM], 3.5%
- COc1ccc(C)cc1NC(=O)NC(C)c1ccc2c(c1)OCO2 (configuration not stated)
→ -11.9%, 0.7%, -2.9, 1.8%, ., 18.7%, 14.0%
- CCOC(=O)c1ccc(N2C(=O)C(CC(=O)NC)N(CCc3ccc(OC)c(OC)c3)C2=S)cc1 (configuration not stated)
→ -16.3%, ?, 1.9, ., 1.6, -19.2%, ?
- CCc1ccc(NC(=O)CSc2nc(NS(=O)(=O)c3ccccc3)cc(=O)[nH]2)cc1
→ -14.2%, 8.7%, -2.2, ., 1.8, -15.6%[15.4 µM], 0.0%
- COc1ccc(C(=O)N2C(=O)c3ccc(N)cc3C2=O)cc1
→ -2.8%, 1.7%, -4.4, ., -5.5, -1.3%[15.4 µM], -3.0%
- CC1(C(=O)NS(=O)(=O)c2cccc(OC(F)F)c2)CCN1C(=O)c1cccc(F)c1 (configuration not stated)
→ ., 1.2%, -5.6, -4.6%, ., ., .
